StopGo RLuc: FMDV 2A StopGo reporter, Renilla signal. HEK cells with a luciferase reporter of 2A StopGo recoding. Potency, µM (highest dose often 57.5 µM), for inactives: at the highest dose signal change, negative = less light. 120,000 tested, 0.32% active; active means well fitted falling curve with a large enough effect; inconclusive means small, poorly fitted or top-dose-only effect; inactive means no such curve, though single readings can be large or run the other way; also: nearly all actives have a fitted effect of over 55% in size; overnight with compound
StopGo FLuc: FMDV 2A StopGo reporter, firefly signal | AID 1745856 | HEK cells with a luciferase reporter of 2A StopGo recoding | Potency, µM (top dose mostly 57.5 µM), for inactives: at the highest dose signal change, negative = less light | 120,000 tested, 0.23% active; active = well fitted falling curve with a large enough effect; inconclusive = small, poorly fitted or top-dose-only effect; inactive = no such curve, though single readings can be large or run the other way; also: nearly all actives have a fitted effect of over 60% in size; overnight with compound
* = called active by the depositor; ? = inconclusive; & = joins results of further samples; [ ] = dose if it differs, or a comment. % is scaled to controls: 0 for no effect and ±100 for the full control effect; potency is read from the fitted curve at half-maximal effect. An excerpt (hit frequency here may not be typical).

Compound,StopGo RLuc,StopGo FLuc
CNC(=O)CCN(C)C(=O)Nc1ccc(C(F)(F)F)cc1,4%,0%
O=C(NC1CCCCC1)c1ccc2c3c(cccc13)CC2,144%[activator],0%
CC(=O)N1CCN(C(=O)Cn2ccc3cc(Br)ccc32)CC1,-2%,-6%
CCN(CCO)Cc1cc(=O)oc2c(C)c(C)ccc12,-6%,17%
Cc1nnc(N2CCCC(C(=O)NCc3ccccc3)C2)c2nn(-c3ccccc3)c(C)c12 (centres undefined),1%,-1%
CCOc1nc2ccccc2nc1N1CCC(C(=O)Nc2ccc(C(N)=O)cc2)CC1,-7%,-6%
Nc1c(-c2nc3ccccc3[nH]2)c2ccccn2c1C(=O)c1cccc(Br)c1,57%[activator],0%
O=C(CSc1nnnn1C1CC1)N1CCCC1c1ccc2c(c1)OCCO2 (centres undefined),-5%,4%
Cc1ccccc1CN1CCCN(CC(=O)Nc2c(C)cccc2C)S1(=O)=O,10%,-20%
O=C(CSc1oc(-c2ccco2)nc1S(=O)(=O)c1ccc(Cl)cc1)c1ccc(Cl)cc1,93%[activator],-19%
N#Cc1cccc(OCC(=O)Nc2ccccc2C(=O)c2ccccc2)c1,-6%,3%
CCN1CCCC1CNC(=O)CC(C)(C)C (centres undefined),-2%,-1%
CCOC1CCNCC1,0%,5%
CC(C)C(C(=O)Nc1nc2ccc(S(C)(=O)=O)cc2s1)c1ccc(Cl)cc1 (centres undefined),-20%,-27%
CC(C)OCCCn1c(SCc2cccc(Br)c2)nc2c(sc3ccccc32)c1=O,-18%,-22%

(further entries)
Compound,StopGo RLuc,StopGo FLuc
COc1cccc(C(=O)CC2(O)C(=O)N(Cc3ccccc3)c3ccccc32)c1 (centres undefined),-8%,-11%
O=C(c1cc(-c2ccco2)nc2ccccc12)N1CCN(Cc2ccccc2)CC1,16%,90%[activator]
Cc1cc2oc(C(=O)Nc3ccc(S(=O)(=O)N4CCCC(C)C4)cc3)cc(=O)c2cc1Cl (centres undefined),4%,-7%
Fc1ccc(C2=NC(c3cccc(C(F)(F)F)c3)=Nc3ccccc3N2)cc1,16%,-3%
Cc1cccc(C2CC(c3cccs3)=NN2c2nc(C)cs2)c1 (centres undefined),48%[activator],44%[activator]
CCc1nnsc1C(=O)NC(C)c1ccc(OC(C)C)c(OC)c1 (centres undefined),-8%,5%
CCCOc1ccc(C(=O)/C=C/c2cc(OC)c(OC)c(OC)c2)cc1,?,?
Nc1nccnc1C(=O)NCc1ccc(Oc2ccc(F)cc2)cc1,?,?
CCCCn1cnc2cc(NCc3ccc(OCC)cc3)ccc21,7%,48%[activator]
C/C(CC(=O)Nc1cccc2c1CCCC2)=N\NC(=O)c1ccccn1,9%,205%[activator]
O=C(Nc1oc2ccccc2c(=O)c1-c1ccccc1)c1ccc(F)cc1,3%,19%
CCOC(=O)c1ccccc1NC(=O)COC(=O)c1nn(-c2ccccc2)c(=O)c2ccccc12,-8%,3%
CCC1Sc2ccccc2N(CC(=O)NCc2ccc(C)cc2)C1=O (centres undefined),1%,29%
COc1cccc(-c2cc(=O)[nH]c(Nc3nc(C)c4ccccc4n3)n2)c1,-4%,18%
COC(=O)c1c(NC(=O)c2cc(OC)c(OC)c(OC)c2Br)sc2c1CCC(C)C2 (centres undefined),-4%,0%

(cont.)
Compound,StopGo RLuc,StopGo FLuc
CCOC(=O)N1CCN(Cc2nc3c(c(=O)[nH]c(=O)n3C)n2CCOC)CC1,-9%,-6%
Cc1cccc(OC(C)c2nc(-c3ccc(Br)cc3)no2)c1 (centres undefined),-7%,2%
O=c1c2c3c(sc2n(Cc2ccccc2F)c(=O)n1-c1ccc(Cl)cc1)CCCC3,-6%,-15%
Cc1ccc(CNC(=O)c2cc(=O)c3c(C)cc(C)cc3o2)cc1,4%,7%
COc1ccc(-c2c(NC(=O)c3cc(OC)c(OC)c(OC)c3)oc3ccc(Cl)cc3c2=O)cc1,-5%,-4%
Cc1cc(=O)n(CC(=O)N2CCCc3ccccc32)c2c1c(C)nn2-c1cccc(F)c1,-10%,-13%
CCNC(=O)C1CCCN(c2nnc(C)c3c(C)n(-c4ccc(C)cc4)nc23)C1 (centres undefined),29%,6%
COc1ccc(-n2c(SCc3nc(-c4ccc(Cl)cc4)no3)nnc2-c2ccncc2)cc1,-26%,?
O=C(Nc1ccc(N2CCN(CCOc3ccc(Cl)cc3)CC2)c(C(=O)O)c1)c1ccc(F)cc1,-11%,-10%
COc1ccc2c(c1)c(=O)c(S(=O)(=O)c1ccc(C)cc1)cn2Cc1ccccc1C,65%[activator],-9%
Cc1nc(Cc2nn3c(-c4ccc(F)cc4)nnc3s2)cs1,-11%,41%[activator]
Cc1cc(N2CCN(c3cccc(C)c3C)CC2)n2cnnc2n1,-4%,-12%
COc1ccc(/C=C/C(=O)c2ccc(C)s2)cc1,35%[activator],144%[activator]
COc1c(CNC2CCN(Cc3ccccc3)CC2)c(C)nn1C,-11%,-5%
COc1cccc(C2CC(=O)Nc3n[nH]c(Nc4ccccc4)c32)c1 (centres undefined),2%,12%

(listing goes on)
Compound,StopGo RLuc,StopGo FLuc
c1csc(C2=NC(c3ccncc3)=Nc3ccccc3N2)c1,-10%,54%[activator]
CN(CC(=O)NC(=O)NCc1ccccc1)Cc1ccc(Cl)cc1,5%,2%
Cc1ccc(CSc2nc3c(cnn3CCO)c(=O)[nH]2)cc1,?,?
CCOc1cc(CNC(=O)c2ccc3nc(C(C)C)oc3c2)cc(OCC)c1OCC,-2%,-6%
Cc1ccc(N2CCN(c3c(CN4CCCC4)c(=O)oc4ccccc34)CC2)c(C)c1,1%&-4%,-3%&-16%
COC(=O)c1cc(-c2ccccc2OC)nc2ccccc12,48%[activator],0%
COc1ccc(NC(=O)Cn2cc(S(=O)(=O)c3ccc(C)cc3)c(=O)c3ccccc32)cc1OC,12%,-8%
CCN(CC)CCC(=O)Nc1c(C(=O)OC)[nH]c2ccccc12,-11%,-14%
Cc1cc(C)cc(NC(=S)NCC(C)(C)N2CCOCC2)c1,15%,121%[activator]
CCN(C(=O)CSc1nc2ccccc2n1CC(=O)Nc1ccc(F)cc1F)c1ccccc1,9%,-5%
CCC(C)c1ccc(NC(=O)CSc2ncnc3ccccc23)cc1 (centres undefined),-4%,37%[activator]
COc1ccccc1C(=O)Oc1ccc(Cl)cc1,15%,42%[activator]
CN(C)c1ccc(CNC(=O)C(Cc2ccccc2)NS(=O)(=O)c2ccc3c(c2)oc(=O)n3C)cc1 (centres undefined),68%[activator],-19%
CCOC(=O)c1cnc(Nc2cccc(F)c2)c2ccccc12,18%,51%[activator]
CCn1nc(C(=O)OC(C)C(=O)Nc2cccc3ccccc23)c2ccccc2c1=O (centres undefined),-3%,-8%

Single entries from the entries so far.
`CCOC(=O)c1cnc(Nc2cccc(F)c2)c2ccccc12` in StopGo RLuc is listed with 18%
`Cc1ccc(N2CCN(c3c(CN4CCCC4)c(=O)oc4ccccc34)CC2)c(C)c1` in StopGo FLuc is listed with -3%&-16%
`COc1ccc(NC(=O)Cn2cc(S(=O)(=O)c3ccc(C)cc3)c(=O)c3ccccc32)cc1OC` in StopGo FLuc is listed with -8%
`CN(CC(=O)NC(=O)NCc1ccccc1)Cc1ccc(Cl)cc1` in StopGo RLuc is listed with 5%
`CN(C)c1ccc(CNC(=O)C(Cc2ccccc2)NS(=O)(=O)c2ccc3c(c2)oc(=O)n3C)cc1` (centres undefined) in StopGo FLuc is listed with -19%

Additional records:
Compound,StopGo RLuc,StopGo FLuc
C/C(=N/NC(N)=S)C1=CC(C)(C)CCC1,10%,0%
C/C(=N\NC(=O)C1CC1c1ccc(C(C)(C)C)cc1)c1ccc(Cl)cc1 (centres undefined),32%[activator],-8%
O=c1c2ccccc2nc(/C=C/c2ccccc2)n1-c1ccccc1F,6%,-7%
COCCn1cnnc1SC(C)c1ccccc1Cl (centres undefined),5%,3%
CCCCn1c(N2CCN(Cc3c(F)cccc3Cl)CC2)nc2c1c(=O)[nH]c(=O)n2C,-3%,-3%
CC(C)C(C)NC(=O)COC(=O)c1ccc2c(c1)NC(=O)CS2 (centres undefined),9%,10%
COC(=O)c1sccc1S(=O)(=O)N1CCN(c2ccc(Cl)cc2)CC1,15%,-14%
CC1CC(NC(=O)CCC(=O)O)CC(C)(C)C1 (centres undefined),32%,0%
Cc1ccc(-n2c(=O)c3ccc(C(=O)NCc4ccco4)cc3n(Cc3ccc(Cl)cc3)c2=O)cc1,-5%,-7%
CCOc1cccc2cc(-c3nc(-c4cc(OC)c(OC)c(OC)c4)no3)c(=O)oc12,-6%,0%
N#Cc1ccc(NC(=O)CN2CCC(C(N)=O)CC2)cc1Cl,-5%,6%
Cc1ccc2oc(C(=O)N3CCOC34CCN(C)CC4)cc(=O)c2c1,-7%,47%[activator]
Cc1ccc(S(=O)(=O)Nc2ccc(-c3ccc(N4CCCCCC4)nn3)cc2)c(C)c1,46%[activator],58%[activator]
O=S(=O)(NCc1nc2ccccc2s1)c1cccs1,61%[activator],0%
Cc1ccc(C)c(NC(=O)Nc2nnc(N3CCCCC3C)s2)c1 (centres undefined),-5%,5%

Following part.
Compound,StopGo RLuc,StopGo FLuc
COc1ccc(CCNC(=O)c2cccc(Nc3nc4ccccc4nc3-n3nc(C)cc3C)c2)cc1OC,-9%,21%
Cc1ccc(C)c(OCC(=O)Nc2ccc(S(=O)(=O)Nc3nccs3)cc2)c1C,0%,0%
CC(C)(C)c1ccc(-c2nc3cc(NC(=O)c4cc5ccccc5o4)ccc3o2)cc1,?,?
CC(=O)C1=C(c2ccc(C)cc2)N(C(C)=O)n2c(nnc2C2CCCCC2)S1,4%,-21%
CNC(=O)Cn1c(CO)cnc1SCc1ccc(Br)cc1,-4%,-3%
COc1ccc(N2Cc3cccc(C(=O)Nc4ccc(C)cc4)c3C2=O)cc1,-12%,-9%
CN(Cc1ccc(-c2ccc(Cl)cc2)o1)C(=O)CSc1nnc(C2CC2)n1CCC(N)=O,-14%,-13%
CCCCc1cnc2c(c1SCC(=O)NCC1CCCO1)c(=O)n(C)c(=O)n2C (centres undefined),24%,5%
CC(C)c1ccc(Nc2ncccc2[N+](=O)[O-])cc1,-20%,163%[activator]
CCN(CC)c1ccc2nnc(CCC(=O)N3CCC4(CC3)OCCO4)n2n1,-4%,3%
Cc1ccc(CS(=O)Cc2ccc(C(=O)NCc3ccccc3Br)o2)cc1 (centres undefined),26%,1%
CC(C)c1ccc(/C=C(/C(=O)O)c2cccs2)cc1,-8%,34%[activator]
CN1C2=N[C@H](c3ccccc3)CC(=O)N2/C(=C\c2ccccc2)C1Cc1ccccc1 (some centres undefined),43%[activator],-7%
CN(C)C(=O)c1ccc(NC(=O)c2cc(Br)c(Br)s2)cc1,26%,148%[activator]
CN1CCN(CCNC(=O)CC2CCN(C(=O)c3ccc4nc(-c5ccccc5)oc4c3)CC2)CC1,-9%,78%[activator]

(next part)
Compound,StopGo RLuc,StopGo FLuc
Cc1ccc(N(Cc2cccs2)C(=O)c2ccc(OC(C)C)cc2)cc1,115%[activator],-16%
Cc1ccc(NS(=O)(=O)c2ccc(-c3coc(C)n3)cc2)cc1,139%[activator],13%
Cc1ccc(C(=O)Nc2cc3c(cc2SCc2ccco2)n(C)c(=O)n3C)cc1,3%,0%
CC1=Nc2cc(C(=O)NC(C)C)ccc2Sc2ccc(C)cc21,-1%,-17%
C#CCCCN([C@H](C(=O)OC)C(C)C)S(=O)(=O)c1ccccc1Br,51%[activator],-11%
CCOc1ccc(CNC(=O)CS(=O)(=O)c2cccc3nsnc23)cc1,0%,12%
Cc1cccc(CSCCNC(=O)CN(c2ccccc2)S(=O)(=O)N(C)C)c1,-29%,?
Cc1cc(Br)cc(C)c1NC(=O)c1cnc2ccccn2c1=O,-4%,14%
CS(=O)(=O)Nc1ccc(NC(=O)Cc2ccc3c(c2)CCC3)cc1,12%,13%
COc1ccc(-c2cc(C(=O)Oc3ccc(C)cc3)c3ccccc3n2)cc1,5%,-5%
CC(C)Cn1c(N)c(C(=O)COC(=O)c2cc(-c3ccccc3)nc3ccccc23)c(=O)n(C)c1=O,7%,17%
CN(C)S(=O)(=O)c1ccc(Cl)c2ccccc12,-4%,-9%
CC1(C)N=C(c2ccc(F)cc2)C(=O)N1CC(=O)Nc1ccccc1Cl,0%,0%
CCCCc1nn2c(=O)cc(COC(=O)c3ccccc3NC(=O)C3CCCCC3)nc2s1,-4%,-11%
CC(=O)N1CCN(C(=O)C(=O)Nc2c3c(nn2-c2ccc(Cl)cc2)CSC3)CC1,-5%,-18%

A run of entries from further up, as a working copy:
Compound,StopGo RLuc,StopGo FLuc
CN(C)S(=O)(=O)c1ccc(Cl)c2ccccc12,-4%,-9%
CC1(C)N=C(c2ccc(F)cc2)C(=O)N1CC(=O)Nc1ccccc1Cl,0%,0%
CCCCc1nn2c(=O)cc(COC(=O)c3ccccc3NC(=O)C3CCCCC3)nc2s1,-4%,-11%
CC(=O)N1CCN(C(=O)C(=O)Nc2c3c(nn2-c2ccc(Cl)cc2)CSC3)CC1,-5%,-18%

(further entries)
Compound,StopGo RLuc,StopGo FLuc
CC(C)NC(=O)COC(=O)c1c[nH]c2ccccc12,-3%,0%
Cc1nc2nc(SCC(=O)NCc3ccccc3Cl)nn2c(C)c1Cc1ccccc1,12%,-7%
Cc1ccc2cc(C(=O)NCC3CCS(=O)(=O)C3)[nH]c2c1 (centres undefined),13%,25%
CCOC(=O)c1c(C)[nH]c(C)c1S(=O)(=O)N1CCC(C(=O)NCc2ccccc2)CC1,16%,-5%
CC(=O)Oc1cc2c(s1)CCN(C(C(=O)C1CC1)c1ccccc1F)C2 (centres undefined),-15%,-18%

Bioassay records as filed in PubChem.
